KCNQ2 pot: KCNQ2 (rat) channel potentiation; O88943; CHO-K1 KCNQ2, FluxOR thallium flux fluorescence; hits give high values; B-score at 10 µM; hit rate 0.54% among 310,000; AID 2239;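 active means fluorescence ratio B-score at least 3 SD of library B-scores, with initial fluorescence B-score within 3 SD, cut at about 5.3 in these data; same plate scores as AID 2156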;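 further: B-score of peak minus minimum over baseline fluorescence ratio after K+ and Tl+ stimulus; positive B-score means potentiation of KCNQ2 with more thallium influx and brighter signal; only the inactives scoring about 0 or higher are listed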
Target sequence (O88943 whole entry, looked up): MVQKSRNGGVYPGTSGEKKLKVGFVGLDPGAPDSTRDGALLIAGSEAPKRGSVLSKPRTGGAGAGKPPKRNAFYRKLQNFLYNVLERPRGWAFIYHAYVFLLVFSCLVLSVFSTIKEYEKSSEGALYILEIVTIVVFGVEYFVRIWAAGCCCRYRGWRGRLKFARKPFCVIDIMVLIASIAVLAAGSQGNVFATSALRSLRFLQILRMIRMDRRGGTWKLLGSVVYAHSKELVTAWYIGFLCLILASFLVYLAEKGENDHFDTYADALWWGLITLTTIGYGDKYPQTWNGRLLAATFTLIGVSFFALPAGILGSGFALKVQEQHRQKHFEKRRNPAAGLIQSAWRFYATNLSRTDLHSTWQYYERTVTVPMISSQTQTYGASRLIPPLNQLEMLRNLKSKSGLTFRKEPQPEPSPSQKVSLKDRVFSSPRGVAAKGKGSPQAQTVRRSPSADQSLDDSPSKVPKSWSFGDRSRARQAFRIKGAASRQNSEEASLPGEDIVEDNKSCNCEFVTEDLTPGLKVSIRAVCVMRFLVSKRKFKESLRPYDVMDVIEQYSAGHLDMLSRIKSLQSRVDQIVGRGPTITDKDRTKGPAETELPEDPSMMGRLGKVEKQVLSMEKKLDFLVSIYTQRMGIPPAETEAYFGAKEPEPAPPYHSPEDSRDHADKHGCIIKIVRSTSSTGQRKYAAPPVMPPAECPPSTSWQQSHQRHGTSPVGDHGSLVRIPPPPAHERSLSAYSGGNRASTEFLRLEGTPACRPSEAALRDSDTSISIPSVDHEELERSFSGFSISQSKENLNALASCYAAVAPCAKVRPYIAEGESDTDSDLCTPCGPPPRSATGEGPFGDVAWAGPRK
KCNQ2 pot baseline: recorded beside KCNQ2 pot, whose call it bears; B-score; compound at 10 µM; measured here: initial fluorescence intensity artifact check;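 brightness before thallium and not channel activity; 0 = typical well and far values either way flag optical interference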
An asterisk follows results filed as active. A portion of the library. The share of hits here may be higher or lower than overall.

Preview (six entries):
canonical_smiles	KCNQ2 pot	KCNQ2 pot baseline
Cc1cc(-c2nc(-c3ccncc3)no2)ccc1[N+](=O)[O-]	2	-0.74
CCOC(=O)CN(C)Cc1c[nH]c2ccccc12	0.02	0
C=CCN(c1ccccc1)S(=O)(=O)c1cccc(C(=O)OCC(=O)NC2CC2)c1	0.53	1.6
O=C(N/N=C/c1ccc(-c2ccc([N+](=O)[O-])cc2)o1)C(O)c1ccccc1 (configuration not stated)	1.4	-0.55
Cc1cc(C)cc(OCC(=O)OCC(=O)Nc2c(C)n(C)n(-c3ccccc3)c2=O)c1	1.3	0.04
N#C/C(=C\c1ccc(OCC(N)=O)cc1)c1ccccc1	0.31	0.1

The list itself, repeating the preview:
canonical_smiles	KCNQ2 pot	KCNQ2 pot baseline
Cc1cc(-c2nc(-c3ccncc3)no2)ccc1[N+](=O)[O-]	2	-0.74
CCOC(=O)CN(C)Cc1c[nH]c2ccccc12	0.02	0
C=CCN(c1ccccc1)S(=O)(=O)c1cccc(C(=O)OCC(=O)NC2CC2)c1	0.53	1.6
O=C(N/N=C/c1ccc(-c2ccc([N+](=O)[O-])cc2)o1)C(O)c1ccccc1 (configuration not stated)	1.4	-0.55
Cc1cc(C)cc(OCC(=O)OCC(=O)Nc2c(C)n(C)n(-c3ccccc3)c2=O)c1	1.3	0.04
N#C/C(=C\c1ccc(OCC(N)=O)cc1)c1ccccc1	0.31	0.1
CCCCOc1ccc(CCC(=O)N/N=C/c2ccco2)cc1	9.1*	-0.53*
O=C1NC(c2ccccc2)C(C(=O)c2cccs2)C(O)(C(F)(F)F)N1 (configuration not stated)	0.51	-0.39
Cc1cc(NC(=O)C(C)SCC(=O)OC(C)C(=O)Nc2ccccc2C)no1 (configuration not stated)	1.2	0.36
Cc1nnc(NC(=O)CSc2nnc(C(C)NC(=O)c3ccccc3F)n2C)s1 (configuration not stated)	0.86	-0.44
O=C(Nc1ccc(N2CCOCC2)cc1)c1ccc(Cl)nc1	0.1	-0.31
COc1ccc(CCNC(=O)CCC(=O)N2CCOc3ccccc32)cc1OC	0.53	-0.59
CCc1ccc(S(=O)(=O)NC2CCCCNC2=O)cc1 (configuration not stated)	0.46	0.48
COC(=O)CS(=O)(=O)c1ccsc1C(=O)Nc1ccc(F)cc1	1.5	1.6
Cc1c(/C=N/NC(=O)C2(O)c3ccccc3-c3ccccc32)cnn1C	0.06	-0.18
CCOCCCNC(=O)c1cn(CC(C)C)c(=O)c2cc(OC)c(OC)cc12	1.2	1.4
CC1=NN(C(=O)COc2ccccc2)C(O)(c2cccnc2)C1 (configuration not stated)	2.6	-0.22
O=C(c1cccc(C(F)(F)F)c1)C1CCCN(C(=O)Cn2cncn2)C1 (configuration not stated)	0.84	0.49
COc1ccc(OCCCC(=O)OCC(=O)c2ccc3c(c2)NC(=O)CO3)cc1	0.19	-0.88
O=c1[nH]nc2n1CCCCC2	0.42	0.77
COC(=O)C(C)N(C#N)c1nc(C)nc(C)n1 (configuration not stated)	0.07	-0.73
Cc1ccc(S(=O)(=O)N2CCOCC2)cc1NC(=O)C1=NN(c2ccccc2)C(=O)CC1	1.6	-0.33
CC(C)(Oc1ccc(CCNC(=O)c2ccc(Cl)cc2)cc1)C(=O)O	2.3	0.47
COc1ccc(N(CC(=O)N2CCC(C(N)=O)CC2)S(=O)(=O)c2ccccc2)cc1	0.79	2.7
CC(=O)N[C@@H](C)C(=O)N1CCC(n2nccc2NC(=O)CCCc2ccccc2)CC1	1.1	0.71
O=[N+]([O-])c1ccc(O)c(NC(=S)Nc2ccccc2)c1	1.3	-1.7
Cc1nc2ccc(NC(=O)N3CCOCC3)cc2s1	0.53	-0.76
CCOc1ccc(-c2nc(CSCC(=O)NC3CC3)c(C)o2)cc1	0.64	-0.67
Cc1nc(C)n(CC(O)COc2ccc3c(c2)CCC3)n1 (configuration not stated)	0.37	-0.39
Cc1cc(NC(NC(=O)c2ccco2)(C(F)(F)F)C(F)(F)F)no1	0.32	0.15

Five compounds already listed, sorted by molecular weight, high to low.
canonical_smiles	KCNQ2 pot	KCNQ2 pot baseline
COc1ccc(N(CC(=O)N2CCC(C(N)=O)CC2)S(=O)(=O)c2ccccc2)cc1	0.79	2.7
CC(=O)N[C@@H](C)C(=O)N1CCC(n2nccc2NC(=O)CCCc2ccccc2)CC1	1.1	0.71
Cc1cc(NC(NC(=O)c2ccco2)(C(F)(F)F)C(F)(F)F)no1	0.32	0.15
CC1=NN(C(=O)COc2ccccc2)C(O)(c2cccnc2)C1 (configuration not stated)	2.6	-0.22
O=c1[nH]nc2n1CCCCC2	0.42	0.77

(more compounds)
canonical_smiles	KCNQ2 pot	KCNQ2 pot baseline
COc1ccc(OC)c2[nH]c(=O)c(CCNC(=O)CC(C)C)cc12	0.06	0.27
O=[N+]([O-])c1cccc(S(=O)(=O)N2CCCC2)c1	0.8	-0.07
O=C(N/N=C\c1ccc(-c2ccc(Cl)c(Cl)c2)o1)C(=O)N1CCCC1	2.1	2.8
CCOc1ccc(-c2noc(CCC(N)=O)n2)cc1OCC	2.2	0.77
CCCC(=O)Nc1cc(-c2nnc(OC)c3ccccc23)ccc1N1CCOCC1	0.13	0.78
CCOC(=O)Cc1csc(NC(=O)Cc2cccs2)n1	0.3	-0.72
CCCSc1ncnc2sc(C)c(C)c12	0.38	-0.01
COC(=O)c1cccc(S(=O)(=O)N2CCC(NC(=O)Nc3cccc(F)c3)CC2)c1	0.52	-1.8
Cc1onc(-c2ccccc2Cl)c1NC(=O)NCc1cccs1	1.1	-0.74
CC1(C)COC(c2cccc(C3=NC(C)(C)CO3)n2)=N1	0.11	0.07
Cc1ccc(CN2CCNC(=O)C2CC(=O)N(Cc2c(C)nn(C)c2C)C2CC2)o1 (configuration not stated)	0.43	0.2
NS(=O)(=O)c1ccc(CCNC(=O)COC(=O)/C=C/c2ccccc2Cl)cc1	0.63	-0.08
CN(C)Cc1c(C#N)c2ccccc2n1C	0.45	0.01
C=CCNc1nc(Nc2ccc([N+](=O)[O-])cc2)nc(OC)n1	0.71	0.28
COc1ccc(N2CC(C(=O)Nc3cccc(S(=O)(=O)N4CCCC4)c3)CC2=O)c(OC)c1 (configuration not stated)	0.22	0.68
O=C(c1ccccc1Cl)N1CCN(S(=O)(=O)c2cccs2)CC1	0.9	0.59
COc1cc(C(=O)Nc2nnc(C(C)(C)C)s2)c([N+](=O)[O-])cc1OC	0.79	0.66
NCCCC[C@H]1CNC(=S)N1CCc1cccc(F)c1	0.79	0.43
COC(=O)c1ccccc1Oc1ccc(NC(=O)c2ccco2)cc1	0.19	0.15
O=C(Nc1cccn2ncnc12)C(Cl)Cl	1.7	0.31
CCOc1ccccc1-c1nc(-c2ccc(NC(=O)Cc3ccc(OC)cc3)cc2)no1	2.3	0.26
CC(C)CCNC(=O)CN(Cc1ccco1)C(=O)CCC(=O)Nc1nccs1	0.26	0.47
Cc1c(C=O)c2ccccn2c1C(=O)c1ccncc1	1.1	-2
CN(C)c1ccc(/C=c2\sc3n(c2=O)CCCN=3)cc1	0.11	0.8
N#Cc1c(-c2ccccc2)oc(=O)c2ccccc12	0.05	0.1
CC(=O)Nc1c(OC(C)=O)ccc2c(C)cc(=O)oc12	0.34	0.83
CCOC(=O)C1=C(COC(=O)c2cccc(Br)c2)NC(=O)NC1C (configuration not stated)	2	-0.13
O=C(N[C@@H](Cc1ccccc1)C(=O)OCC(=O)N1CCOCC1)c1cccs1	0.12	-0.16
COc1ccc(Cl)cc1NC(=S)NCc1ccco1	0.01	-0.62
O=C1C(=O)N(Cc2ccco2)C(c2cccs2)/C1=C(\O)c1cccc([N+](=O)[O-])c1 (configuration not stated)	0.54	0.46
CCN(CC)C(=O)Cn1c(=O)n(-c2ccccc2)c(=O)n1CC(=O)N(CC)CC	0.47	0.33
O=C(NC1=NCCS1)c1nc(-c2ccccc2)n(-c2ccccc2)n1	0.19	0.06
O=S(=O)(c1cccc(-c2cn3cc(Cl)ccc3n2)c1)N1CCOCC1	0.64	-1.8
COc1ccccc1OCCC(=O)OCC(=O)Nc1cc(S(=O)(=O)N(C)C)ccc1Cl	0.2	0.08
O=C(COC(=O)c1ccc2ccccc2n1)Nc1cccc(S(=O)(=O)NC2=NCCCCC2)c1	0.01	-0.54
C/C(CC(=O)Nc1ccc(Cl)c(C(F)(F)F)c1)=N\NC(=O)c1cc2ccccc2cc1O	0.04	2.3
Cc1ccccc1NC(=S)N1CCCC1	0.68	0.2
Cc1ccc(C)c(NC(=S)N/N=C2\CCc3ccccc32)c1	0.24	0.7
O/N=C/CCn1c(=S)sc2ccccc21	0.3	-0.15
Cc1ccc(NC(=O)Cn2cnc3ccccc32)cc1C	1.6	-1.7
CCOc1cc(C(C#N)N2CCOCC2)ccc1OC (configuration not stated)	0.96	-0.22
COC(=O)C[C@H]1c2cc(C(F)(F)F)ccc2S(=O)(=O)N1c1ccc(N(C)C)cc1	1	1.1
CC1=CCC2C(=O)N(c3cccc(C(=O)NC(C)c4ccccc4)c3)C(=O)C2C1 (configuration not stated)	0.33	-1.9
COc1ccc(Cl)cc1NC(=O)NCc1ccco1	0.95	-0.83
O=C(CCN1C(=O)c2ccccc2C1=O)NNC(=O)c1ccc(Cl)cc1Cl	0.83	-0.6
Cc1cc(C)cc(N(C(=O)c2csnn2)C(C(=O)NC(C)(C)C)c2ccncc2)c1 (configuration not stated)	1.1	-1.2
COc1ccccc1S(=O)(=O)Cc1ccc(C(=O)NCCN2CCCCCC2)o1	0.72	-0.16
COc1ccccc1CNC(=O)C/C(C)=N/NC(=O)Cc1ccc(Cl)cc1	0.59	-0.17
CCOC(=O)C1=C(O)C(=O)N(Cc2cccnc2)C1c1ccc(C)cc1 (configuration not stated)	0.17	-0.11
CC1CN(S(=O)(=O)c2csc(C(=O)Nc3ccccc3)c2)CC(C)O1 (configuration not stated)	0.02	1.6
COc1ccc(C)cc1NC(=O)CCCN1C(=O)CCC1=O	0.46	-0.17
CC(NC(=O)CN(C)CC(=O)Nc1ccc(Cl)c(C(F)(F)F)c1)c1ccccc1 (configuration not stated)	1.6	0.8
N#CC1(NC(=O)Cn2cc(C(F)(F)F)cc(Cl)c2=O)CCCCC1	0.2	1.9
COCc1[nH]c(=S)[nH]c(=O)c1C	1.3	-2.2
COc1ccc(N2CCN(S(=O)(=O)c3ccc4c(c3)N(C(C)=O)CCO4)CC2)cc1	1.1	2.1
Cc1ccccc1C(=O)NC1CCN(CC(=O)NC2CCCCC2)CC1	0.51	0.48
Cc1ccccc1NS(=O)(=O)c1ccc(C(=O)NNC(=O)c2ccccc2O)cc1	0.73	0.16
Cc1ccc(N2C(N)=C(C#N)C(c3ccsc3)C3=C2CC(C)(C)CC3=O)cc1 (configuration not stated)	0.29	1.6
CS(=O)(=O)N1CCN=C1SCc1ccccc1	0.66	-0.17
COCCNc1ccc(N2C(=O)C3CCCCC3C2=O)cc1[N+](=O)[O-] (configuration not stated)	1.7	-2.7

The listing continues:
canonical_smiles	KCNQ2 pot	KCNQ2 pot baseline
O=C(O)CCC(=O)Nc1sc2c(c1C(=O)NCc1ccccc1)CCCC2	0.17	0.52
O=C(CC(=O)Nc1ccc(Cl)cc1)N/N=C\c1cccc(F)c1	0.39	-0.58
CCc1cccc(NC(=O)C2CCCN(S(=O)(=O)c3cccnc3)C2)c1 (configuration not stated)	0.24	3
CCNC(=O)Oc1ccc[nH]c1=O	1	0.04
COc1cc(C(=O)NCc2ccc3[nH]c(C)cc3c2)cc(OC)c1OC	0.49	-0.24
CC(=O)N/N=C/c1c(C)[nH]n(-c2ccccc2)c1=O	0.99	-1.3
O=S(=O)(NCc1cn2ccccc2n1)c1cc(F)ccc1F	0.23	-1.4
CC(C)(C)c1ccccc1OCC(=O)Nc1ccccc1C(=O)NCc1cccnc1	2.3	0.02
CC1Cc2ccccc2N1C(=O)CSc1nnc(-c2ccc(S(=O)(=O)N3CCCC3)cc2)o1 (configuration not stated)	0.44	-2.7
Cc1ccc(OC(=O)c2ccc3snnc3c2)cc1	1.8	0.06
COCCCn1c(C(=O)N2CC(C)OC(C)C2)cc2c(=O)n3ccccc3nc21 (configuration not stated)	0.09	-0.34
Cc1oc2ccc(OCc3ccc(F)cc3Cl)cc2c1C(=O)O	7*	0.09*
COc1ccc(C2C(C(=O)NCc3ccco3)CCC(=O)N2c2ccc(OC)cc2)cc1 (configuration not stated)	0.32	-0.11
COc1cccc(NC(=O)c2ccccc2-c2ccccc2C(=O)O)c1	0.42	-0.8
CCOC(=O)c1ccc(NS(=O)(=O)c2cc(-c3nnnn3CC)ccc2OC)cc1	1.2	0.4
Cc1nc(C)c(-c2csc(NCc3ccccc3)n2)s1	0.43	1.1
CCCC1Cc2c(sc3ncnc(N)c23)CO1 (configuration not stated)	1.4	-1.3
O=C(NCC(c1ccco1)N1CCCCC1)c1ccc(OCc2ccccc2)cc1 (configuration not stated)	0.04	0.5
COc1ccc(/C=N/NC(=O)/C(=C/c2ccccc2)CCO)cc1	0.6	-0.01
COc1cc(N=Cc2c(CO)cnc(C)c2O)cc(OC)c1OC	2.2	-2.7
COc1ccc(CC(=O)Nc2ccc(C(N)=O)cc2)cc1	0.12	-0.9
CC(=O)c1ccc(NC(=O)CCOc2cc(C)ccc2C)cc1	0.09	-1.7
Cc1cc(OCC(=O)N2CCOCC2)ccc1NC(=O)C1CCCCC1	0.97	-0.84
CCCCN(C1CCS(=O)(=O)C1)S(=O)(=O)c1ccc(OC)c(OC)c1 (configuration not stated)	0.46	-0.03
O=C(Nc1nnc(CCc2ccccc2)s1)c1ccco1	1	0.44
